# RGS16-Gao: modulates binding between human RGS16 and Galphao. O15492+P09471. bead-based flow cytometry RGS16-Galphao binding, fluorescence; actives lie on both sides. binding response (% of control), % at 10 µM. 220,000 tested, 0.38% active;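 active = below 25% or above 175%, edge rows of some plates excepted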;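 note: Galphao activated by GDP with aluminum fluoride before binding; 100% = wells without compound and 0% = beads without RGS; some results beyond the cut were filed as inactive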
# Target sequence (O15492 whole entry, looked up): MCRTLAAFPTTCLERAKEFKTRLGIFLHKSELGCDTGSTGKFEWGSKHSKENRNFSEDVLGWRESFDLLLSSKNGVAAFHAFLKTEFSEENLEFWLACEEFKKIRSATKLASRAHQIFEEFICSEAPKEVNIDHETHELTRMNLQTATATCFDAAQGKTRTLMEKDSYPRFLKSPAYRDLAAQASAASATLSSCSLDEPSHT
# Target sequence (P09471 whole entry, looked up): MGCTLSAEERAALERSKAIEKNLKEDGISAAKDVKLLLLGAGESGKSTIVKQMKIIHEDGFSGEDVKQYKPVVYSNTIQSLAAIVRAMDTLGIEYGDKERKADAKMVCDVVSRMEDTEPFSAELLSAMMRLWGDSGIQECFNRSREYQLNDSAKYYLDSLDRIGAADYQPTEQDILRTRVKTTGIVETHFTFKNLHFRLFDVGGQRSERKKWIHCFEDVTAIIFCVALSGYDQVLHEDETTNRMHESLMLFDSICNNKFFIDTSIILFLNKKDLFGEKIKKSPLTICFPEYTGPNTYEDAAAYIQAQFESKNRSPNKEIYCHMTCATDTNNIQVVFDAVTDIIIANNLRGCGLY
# Insulin prom inh: TRM-6 insulin promoter activity inhibition. TRM-6 cells (human fetal islet line), insulin promoter-eGFP reporter, imaging; reporter expression induced with tamoxifen. inhibition, % at 2 µM. 130,000 tested, 0.9% active;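 active = inhibition above the mean plus 3 SD, with well images judged a real hit on visual review, cut at about 60% in these data, passing the limit was not always enough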
# GALR2 ag: agonists of human galanin receptor 2 (GALR2) | O43603 | GALR2-expressing cells, agonist activation read-out | activation, %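 (tested at 5 µM)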 | 140,000 tested, 0.48% active | AID 803;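 active = above mean plus 3 SD of all compounds, about 5% in these data, not always enough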;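 note: 0% = vehicle buffer wells and 100% = reference agonist at full effect; tested in CHO reporter cells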
# Target sequence (O43603 whole entry, looked up): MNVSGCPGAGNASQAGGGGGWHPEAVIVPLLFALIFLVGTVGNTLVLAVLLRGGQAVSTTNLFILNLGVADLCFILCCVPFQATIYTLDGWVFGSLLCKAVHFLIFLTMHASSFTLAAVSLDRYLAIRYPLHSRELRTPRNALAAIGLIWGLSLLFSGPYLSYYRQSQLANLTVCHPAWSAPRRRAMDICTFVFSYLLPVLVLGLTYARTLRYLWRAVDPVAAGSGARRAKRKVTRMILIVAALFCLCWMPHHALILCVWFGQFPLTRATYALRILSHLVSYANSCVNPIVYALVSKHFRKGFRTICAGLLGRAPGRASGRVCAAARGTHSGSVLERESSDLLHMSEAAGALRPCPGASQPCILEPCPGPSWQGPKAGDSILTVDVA
# HSV replic up: increases HSV replication in cells | 220,000 tested, 0.005% active | HSV replication augmentation in cells, fold increase | maximum fold increase;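 active = peak rise of 1.5-fold or more in the series; tested in PC3 cells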;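 note: first round at 10 µM; read as green reporter fluorescence; hits show the peak of a series up to 25 µM; 1 = signal of infected wells without compound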
# PKD1 inh: blocks activity of human protein kinase D1; 200,000 tested, 0.056% active; Q15139; PKD1 kinase fluorescence polarization assay; inhibition, %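 (about 10 µM by stock and volumes)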;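 active = inhibition of 50% or more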;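 note: controls were vehicle for no effect and a reference inhibitor for full effect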
# Insulin prom inh cell count: also measured in Insulin prom inh; calls as there; normalized cell count, %; measured here: cell count, toxicity; reference of the scale not given here;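 cells exposed to compound for 48 h; stained nuclei by imaging scaled within each plate; lower means fewer cells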
# HSV replic up primary fold: recorded beside HSV replic up, whose call it bears; fold increase; compound at 10 µM; measured here: primary screen fold increase 10 uM; tested in PC3 cells;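 GFP signal in the first replicate; 1 = infected wells without compound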
# The depositor's hits bear a star; i = inactive; nt = not tested or not shown.
SMILES,RGS16-Gao,Insulin prom inh,Insulin prom inh cell count,GALR2 ag,HSV replic up,HSV replic up primary fold,PKD1 inh
CC(CCc1ccccc1)NC(=O)CSc1ccccn1 (stereo unspecified),102.2,nt,nt,nt,i,0.99,1.1
CC(=O)N1CCN(C(=O)Cn2c(=O)oc3ccccc32)CC1,103.4,0.0,74.7,-1.2,i,0.89,2.8
O=C(CCc1nnc(CCC2CCCCC2)o1)NCc1ccon1,103.9,nt,nt,nt,i,0.97,-3.9
COc1ccccc1NNC(=O)c1cc(C(C)(C)C)nn1Cc1ccccc1,102.5,nt,nt,nt,i,1,nt
Cc1cc(O)ccc1Nc1nc(-c2sc(N)nc2C)cs1,93.5,19.4,185.1,-0.9,i,0.84,-10.6
CN(C(=O)c1cc2sccc2n1C)C1CCCCC1,95.7,-41.3,198.5,-1.2,i,0.9,0.6
c1ccc(CNc2nc(NCc3ccco3)nc(N3CCOCC3)n2)cc1,98.4,-31.6,151.6,nt,i,0.97,-6.6
COc1ccccc1CNC(=O)C(=O)NCC1OCCN1C(=O)c1ccc(Cl)cc1 (stereo unspecified),89.7,nt,nt,nt,i,1.06,nt
COc1cc(NC(=O)C(=O)N2CCN(C)CC2)c(OC)cc1Cl,104.0,nt,nt,nt,i,1.11,nt
COC(=O)c1c(NC(=O)CN2CCCc3ccccc32)sc(C)c1C,114.2,-40.3,41.8,-2.0,i,1.61,-8.3
CC1CCN(S(=O)(=O)c2cc([N+](=O)[O-])ccc2Cl)CC1,28.8,18.2,51.6,nt,i,1,2.6
c1ccc(-c2ccnc3nc(-n4cccc4)nn23)cc1,100.7,0.0,113.2,-0.6,i,0.61,-7.0
Cc1nnc(SCC(=O)Nc2nc3ccccc3s2)n(N)c1=O,43.3,nt,nt,0.2,i,0.91,-1.0
CN(CC(=O)O)S(=O)(=O)c1cc(Cl)ccc1Cl,96.3,23.5,125.0,-1.8,i,1.02,-2.3
CCc1c(O)cc(=O)n(-c2ccccc2)c1-c1ccccc1,89.7,-33.3,126.3,-0.8,i,0.95,-1.8
COc1ccc(-c2nnc(SCC(=O)N3CCOCC3)o2)cc1,108.1,nt,nt,-2.6,i,0.97,-9.4
Cc1ccn2c(-c3n[nH]c(=S)n3C)c(C)nc2c1,87.3,nt,nt,-0.3,i,0.99,-5.6
Cn1c(=O)c2c(nc(SCC(=O)c3ccccc3F)n2C)n(C)c1=O,110.8,-23.8,98.2,nt,i,0.91,-0.6
COC(=O)c1cc(CNC(=O)c2ccccc2Cl)ccc1OC,145.6,-8.6,73.8,-0.2,i,0.95,-7.7
CC(=O)Nc1ccc(C)c([N+](=O)[O-])c1,99.7,nt,nt,nt,i,1.06,-7.5
Clc1ccc(CSc2nnc(-c3ccc4c(c3)OCO4)o2)cc1,99.7,-25.0,106.7,-1.0,i,0.89,-4.0
CCOC(=O)c1ccc(NC(=O)c2ccccc2)cc1,106.8,-7.1,111.2,-1.8,i,1.01,-2.5
Cc1ccc(SC(C)C(=O)Nc2ccc(S(=O)(=O)N3CCOCC3)cc2)cc1 (stereo unspecified),104.9,-23.3,165.8,-2.4,i,0.69,-10.9
O=C(/C=C/Nc1ccc(OC(F)(F)F)cc1)C(F)(F)F,102.0,-6.0,127.1,-2.5,i,0.87,-8.0
CCOC(=O)c1oc2ccc(S(=O)(=O)n3nc(-c4ccc(OC)cc4)cc3N)cc2c1C,72.1,50.0,151.1,0.3,nt,nt,1.7
O=C(COC(=O)c1cc(NS(=O)(=O)c2cccs2)ccc1O)Nc1ccc(F)c(F)c1F,98.3,nt,nt,nt,i,0.86,-3.6
CC(C)=CC(=O)OCC(=O)Nc1cc([N+](=O)[O-])ccc1F,113.7,nt,nt,-0.6,i,1.03,-10.0
Cc1c(C(=O)N/N=C/c2cccnc2)sc(=S)n1C,98.5,13.8,188.8,0.1,i,0.87,1.0
Clc1ccc(SCc2cn3ccsc3n2)cc1,102.4,13.3,72.7,-1.9,i,0.827,6.0
CCS(=O)(=O)N1CCC(C(=O)NCc2ccc(OC)cc2OC)CC1,103.4,nt,nt,nt,i,0.97,-3.8

# Ordered by value in GALR2 ag (falling): some entries from above
Molecule	GALR2 ag
CCOC(=O)c1oc2ccc(S(=O)(=O)n3nc(-c4ccc(OC)cc4)cc3N)cc2c1C	0.3
Cc1c(C(=O)N/N=C/c2cccnc2)sc(=S)n1C	0.1
COc1ccc(-c2nnc(SCC(=O)N3CCOCC3)o2)cc1	-2.6

# Next section:
SMILES,RGS16-Gao,Insulin prom inh,Insulin prom inh cell count,GALR2 ag,HSV replic up,HSV replic up primary fold,PKD1 inh
CCCN(CC(=O)Nc1ccc(C(N)=O)cc1)CC(=O)Nc1ccccc1C,102.6,25.0,108.3,nt,i,0.93,-4.6
O=C(NCc1cccc(F)c1)c1noc2c1CCCC2,99.2,-257.1,69.2,-1.3,i,0.86,1.1
FC(F)(F)c1cc(-c2ccco2)nc(NCc2cccnc2)n1,104.6,nt,nt,-2.7,nt,nt,-3.6
Cn1c(C(C#N)C(=O)c2ccco2)nc2ccccc21 (stereo unspecified),103.8,nt,nt,-2.2,i,0.87,2.1
CCN(CC)C(=O)CP(=O)(c1ccccc1)c1ccccc1,94.8,nt,nt,-1.1,i,0.93,-5.3
CC(Cc1ccccc1)NC(=O)c1cc([N+](=O)[O-])ccc1Cl (stereo unspecified),99.2,nt,nt,nt,i,0.97,nt
Clc1ccc(Sc2cc(N3CCOCC3)nc(-c3ccccc3)n2)cc1,117.7,-33.3,105.3,1.7,i,1.02,-6.0
CC(C)n1c(SCC(N)=O)nc2c1c(=O)[nH]c(=O)n2C,104.5,33.3,90.9,-3.6,i,1.05,-4.8
CCOC(=O)c1c(NC(=O)CSc2nnc(CNc3ccc(C)cc3C)o2)sc(C)c1C,82.0,-300.0,109.6,-1.5,i,0.92,0.0
Cc1nccc(-c2ccc3c(c2)OCO3)n1,100.1,nt,nt,nt,i,1.1,4.0
O=C(CSc1nnc2ccccn12)NC(=O)Cc1ccccc1,100.1,2.7,121.7,nt,i,1.28,3.9
C#CCOCCOCCOCCNc1nc(N2CCOCC2)nc(N2CCN(C(=O)[C@H](Cc3ccc(O)cc3)n3cc([C@@H](N)CC(C)C)nn3)CC2)n1,95.9,nt,nt,nt,i,0.93,9.8
COC(=O)c1ccc2c(=O)n(CC3CCCO3)c(SCC(=O)Nc3ccccc3OC)nc2c1 (stereo unspecified),92.9,nt,nt,-1.0,i,0.83,8.3
CC(CC(=O)Nc1ccc(C(N)=O)cc1)c1ccccc1 (stereo unspecified),105.0,30.8,98.3,-0.6,i,0.95,-8.0
Nc1ccc2nc3n(c(=O)c2c1)CCC3,96.6,nt,nt,nt,i,0.92,10.4
CS(=O)(=O)N(CCc1ccccc1)CC(=O)Nc1ccc(OCc2ccccc2)cc1,117.7,3.6,78.6,-4.0,i,1.01,-2.7
Cc1cc(C(=O)CSc2nnc(C3COc4ccccc4O3)n2C)c(C)n1-c1ccc(F)cc1 (stereo unspecified),97.9,-27.3,94.5,0.3,i,0.65,-3.7
C#CCNc1nc(C(C)C)nc2c1nnn2Cc1ccccc1F,104.2,18.5,72.2,0.2,nt,nt,13.1
Cc1ccc(Cl)cc1NC(=S)N/N=C/c1cccc2ccccc12,100.1,nt,nt,nt,i,0.65,nt
O=C(NCCC1=CCCCC1)C1CCN(C(=O)c2ccc(Cl)cc2)CC1,74.6,-33.3,170.7,-1.5,i,1.05,-11.4
COc1ccc(CN(CCC#N)C(=S)NC(=O)c2ccccc2)cc1,93.6,nt,nt,-0.3,i,0.87,9.3
COC(=O)c1ccccc1NC(=O)CN(C)S(=O)(=O)c1ccc(OC)c(C)c1,96.0,-346.7,97.7,-1.1,i,0.91,0.1
Cc1ccc(S(=O)(=O)Nc2cc(C(=O)N3CCOCC3)ccc2N2CCCCC2)cc1,90.7,-46.1,96.6,0.2,i,0.867,11.9
COc1nc(N(C)C)nc(-n2nnc(C(C)=O)c2C)n1,98.0,-35.7,84.5,-0.8,i,1.03,-1.0
Cc1nn(CC(=O)NNC(=S)Nc2ccccc2)c(C)c1[N+](=O)[O-],111.3,3.6,129.3,-1.9,i,0.84,-15.1
Cc1cc(NC(=O)CSc2n[nH]c(=O)[nH]c2=O)ccc1Br,98.8,nt,nt,nt,i,0.98,-5.5
Cc1nn(-c2ccccc2)nc1CNS(C)(=O)=O,100.1,nt,nt,nt,i,1.01,nt
CCSCCOC(=O)C1=C(C)NC(=O)NC1c1ccccc1 (stereo unspecified),104.3,nt,nt,-1.8,i,1.06,-4.8
O=C(NC(=S)Nc1cccc2ncccc12)c1ccco1,94.2,-26.3,97.1,nt,i,1.23,0.1
COc1ccc(NC(=O)C2CCN(Cc3cnn(-c4ccccc4)c3-n3cccc3)CC2)cc1OC,107.8,41.4,135.3,-2.1,i,0.97,-6.9

# Some of these compounds in order of length of the SMILES, smallest number first:
SMILES,RGS16-Gao,Insulin prom inh,Insulin prom inh cell count,GALR2 ag,HSV replic up,HSV replic up primary fold,PKD1 inh
Cc1nn(-c2ccccc2)nc1CNS(C)(=O)=O,100.1,nt,nt,nt,i,1.01,nt
COc1ccc(CN(CCC#N)C(=S)NC(=O)c2ccccc2)cc1,93.6,nt,nt,-0.3,i,0.87,9.3
O=C(NCCC1=CCCCC1)C1CCN(C(=O)c2ccc(Cl)cc2)CC1,74.6,-33.3,170.7,-1.5,i,1.05,-11.4
Cc1nn(CC(=O)NNC(=S)Nc2ccccc2)c(C)c1[N+](=O)[O-],111.3,3.6,129.3,-1.9,i,0.84,-15.1
Cc1cc(C(=O)CSc2nnc(C3COc4ccccc4O3)n2C)c(C)n1-c1ccc(F)cc1 (stereo unspecified),97.9,-27.3,94.5,0.3,i,0.65,-3.7

# Other structures follow:
SMILES,RGS16-Gao,Insulin prom inh,Insulin prom inh cell count,GALR2 ag,HSV replic up,HSV replic up primary fold,PKD1 inh
O=C(Cn1nc(-c2ccccc2)nc1-c1ccccc1)OC1CCCCC1,100.6,-52.9,122.8,-2.5,i,0.97,0.3
Cc1csc(NC(=O)c2ccc(C)c([N+](=O)[O-])c2)n1,76.5,28.6,107.3,-1.6,i,1.05,-8.8
COc1ccc2c(=O)c(C(=O)O)c(-c3ccc4c(c3)OCO4)n(C)c2c1,84.7,-25.0,98.8,-1.2,i,1.04,-7.6
CCNC(=S)NCc1ccc(OC)c(OC)c1,103.8,nt,nt,nt,i,0.97,2.8
COc1cccc(NC(=O)COC(=O)Cc2ccccc2[N+](=O)[O-])c1,114.3,-41.7,68.2,nt,i,1,-7.2
Clc1ccc(SCCCCN2CCOCC2)cc1,102.6,-6.9,86.5,-0.2,i,1.12,-2.2
O=C(CSc1nn(-c2ccc(F)cc2)c(=S)s1)NC(=O)NCc1ccco1,19.2*,-110.0,57.2,-2.5,i,1.03,6.6
COC(=O)c1ccc(OC)c(-c2c(OC)cc(OC)cc2OC)c1,107.0,-10.3,124.6,-1.0,i,0.96,0.6
COc1cc(NC(=O)COC(=O)/C=C/c2c(C)nn(C3CCS(=O)(=O)C3)c2Cl)cc(OC)c1OC (stereo unspecified),87.4,-12.7,102.0,-2.6,i,0.83,-11.4
COc1ccc(C)cc1S(=O)(=O)N1CCC(C(=O)N2CCN(C)CC2)CC1,134.2,20.7,59.8,-1.1,i,1.02,-5.1
O=C(CN1C(=O)COc2ccccc21)N(CCCN1CCOCC1)CC1CC=CCC1 (stereo unspecified),nt,nt,nt,-1.2,i,1.12,2.8
Cc1ccccc1C(=O)NC(CC(C)C)C(=O)Nc1ccc(S(N)(=O)=O)cc1 (stereo unspecified),101.6,27.8,206.7,nt,i,1.1,-4.5
c1ccc2[nH]c(N3CCOCC3)nc2c1,105.3,60.7*,111.5*,-2.4,i,0.91,-5.3

# Bioassay records (PubChem)
